CapD inh – inhibitors of Bacillus anthracis CapD enzyme; purified CapD enzyme, fluorescence intensity read-out; active compounds read low; some hits fall short of the stated cut; z-score (no concentration beside the values); AID 492967; hit rate 0.23% among 140,000;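 active means z-score under -4 in either of two replicates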;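 further: stock transfer was 100 nL into about 40 µL; score is relative to mean and spread of the plate; one replicate is shown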
AID504770 – E. coli YBA685 growth inhibition, screen for V. cholerae RctB inhibitors; E. coli YBA685 rctB-dependent plasmid, OD600 growth, 3 h; active compounds read low; AID 504770; hit rate 0.27% among 130,000; z-score (no concentration beside the values);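 active means z-score under -2 on both plates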;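 further: wells of about 30 µL received 100 nL stock; score is relative to mean and SD of the test wells; the first replicate is given; strong numbers were not always called active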
An asterisk follows results filed as active; i = inactive; nt = not tested or not shown.

no.	Molecule	CapD inh	AID504770
1	S=c1[nH]nc(Cn2cnc3ccccc32)n1-c1ccccc1	40	0.4
2	CCN1CCN(c2ccc(Nc3ccnc4cc5ccccc5cc34)cc2)CC1	1.2	0
3	CCN(CC)c1ccc2cc(-c3csc(-c4nc(-c5cc6ccc(N(CC)CC)cc6oc5=O)cs4)n3)c(=O)oc2c1	-0.17	nt
4	O=[N+]([O-])c1ccc(-c2nc(NCc3ccco3)c3ccccc3n2)cc1	-0.03	nt
5	CCOC(=O)c1ccc(-n2c(=S)sc3c2nc(SCC(=O)Nc2cccc(OC)c2)n2c4ccccc4nc32)cc1	1.5	nt
6	COCCCNC(=S)N/N=C/c1ccc(N(C)C)cc1	43	nt
7	O=C(Oc1ccc(C2Oc3ccccc3C3CC(c4ccccc4)=NN32)cc1)c1ccccc1 (stereo not drawn)	1.4	nt
8	CCN(CC)CC1(O)CCN(C(=O)c2ccc(Cl)c(Cl)c2)CC1	0.08	nt
9	CCn1c(=NC(=O)CSCC(=O)N2CCCc3ccccc32)sc2ccccc21	0.21	-0.45
10	O=C(Nc1ccccc1Cl)C(Cc1ccccc1)N1C(=O)C2C3c4ccccc4C(c4ccccc43)C2C1=O (stereo not drawn)	-0.2	nt
11	COc1ccc(-c2cc(C(=O)Nc3sc4c(c3C(N)=O)CCC(C)C4)no2)cc1OC (stereo not drawn)	-1	1.5
12	COc1ccc(C2(O)CC3CCC(C2)N3c2cc(C)nc(-c3ccccc3)n2)cc1 (stereo not drawn)	nt	0.45
13	CC1(C)CC(=O)c2cnc(NC(=O)c3ccc(Cl)cc3)nc2C1	nt	-0.2
14	O=C(O)c1cc2cccc(S(=O)(=O)N3CCCCC3)c2cc1O	0.045	0.15
15	Cc1cccc(NC(=O)NC(C)c2c(-n3cccc3)sc(C)c2C)c1C (stereo not drawn)	0.2	0.05
16	O=C(CSC(=S)N1CCOCC1)c1ccccc1	0.08	-0.75
17	O=C(O)C1CCCN(S(=O)(=O)N2CCCCC2)C1 (stereo not drawn)	4.9	-0.05
18	O=C(CSc1nc2ncc(Cl)cc2[nH]1)NN1C(=O)NC2(CCCCC2)C1=O	nt	-0.2
19	CCCn1nc(C(=O)N2CCCCCCC2)c2ccccc2c1=O	nt	-0.4
20	OC1CCCN(C(=S)NCc2ccccc2)C1 (stereo not drawn)	0.075	0.4
21	CNC(=O)c1cn(C)c2ccccc12	-0.075	-2
22	COc1ccc(-n2nc(C(=O)N(C)c3ccccc3)c3c4ccccc4n(C)c3c2=O)cc1	-4.3*	1.8
23	O=[N+]([O-])C12CN3CN(C1)CC([N+](=O)[O-])(C3)C2	-0.3	nt
24	CCOc1cc(-c2noc(CCCC(=O)Nc3cccc(C)c3C)n2)cc(Br)c1OC	0.54	-0.95
25	COC(=O)c1ccccc1NC(=O)c1nc2ncccn2n1	0.39	1.6
26	COc1cc(C=C2C(=O)NC(=O)NC2=O)ccc1OCCOc1ccc(C(C)(C)C)cc1	-0.66	nt
27	CCOc1ccc(-c2c(C#N)c(N)nc(SCC(=O)c3ccc([N+](=O)[O-])cc3)c2C#N)cc1	0.14	nt
28	COc1ccc(N2CCN(Cc3cc(C(C)C)c(C)cc3O)CC2)cc1	nt	0.4
29	Cc1cc(NC(=O)CCCC(=O)O)n(C)n1	-0.26	-0.55
30	O=C(CSc1nc2ccccc2o1)Nc1cc(Cl)ccc1Oc1ccccc1	-0.15	nt
31	Cc1ccc(CN2CC(C(=O)NCc3ccc(S(N)(=O)=O)cc3)CC2=O)cc1 (stereo not drawn)	nt	-1.6
32	COC(=O)c1ccc(CSc2nc3ccncc3n2C(C)C(=O)OC)cc1 (stereo not drawn)	0.06	-0.65
33	CCS(=O)(=O)c1nc(NC(C)=O)n[nH]1	0.3	0.6
34	CC(C)(C)C1C/C(=C/c2ccco2)C(=O)/C(=C/c2ccco2)C1 (stereo not drawn)	-0.71	-0.55
35	COc1nnc(-c2ccc(Cl)cc2)c2ccccc12	0.18	nt
36	O=C1SC(Nc2ccccc2)C(=O)N1c1ccccc1 (stereo not drawn)	nt	-0.85
37	Cc1ccc(Oc2ncccc2NC(=O)c2ccco2)c2c1CCC2	0.91	2.6
38	O=C(CSc1nc(-c2ccccc2)cs1)N1CCN(S(=O)(=O)c2ccccc2)CC1	nt	-0.05
39	O=c1nc2n(c3sc4c(c13)CCCC4)CC(O)=C2c1nc2ccccc2s1	nt	-0.65
40	C=CCC(CN)(CC=C)c1ccc(OC)c(OC)c1	-0.51	-0.3
41	COc1ccc(C2CC(=O)Nc3c2ccc2ccccc32)c(OC)c1OC (stereo not drawn)	0.94	nt
42	Cc1cc(Sc2cccc(C(F)(F)F)c2)nc2ccc(Cl)cc12	0.19	nt
43	Cc1ccc(/C=C/C(=O)N(Cc2ccccc2)c2ccccn2)cc1	41	1.1
44	Cc1cc(C)n2nc(C(=O)OCc3cccc(S(=O)(=O)N(C)C)c3)nc2n1	nt	-0.9
45	Cc1ccc2oc(-c3cccs3)nc2c1	115	-0.8
46	COc1cc2c(cc1OC)C1=NC(=O)CN1C(SCc1cccc(F)c1)=N2	5.2	nt
47	COc1ccc(C2(CCNCc3ccc(N(C)C)cc3)CCOC(C)(C)C2)cc1 (stereo not drawn)	1.4	nt
48	Cc1ccccc1NCC(=O)N/N=C\c1ccccc1	0.36	-0.3
49	Cc1ccccc1NC(=S)NCCO	-0.43	nt
50	O=c1ccnc2c1c(-c1ccccc1)nc1[nH]onc12	-1.1	1.9
51	CCn1nccc1C(=O)Nc1cc(C(=O)OC(C)C)cc(C(=O)OC(C)C)c1	nt	-0.2
52	CN(C(=O)c1cn(C2CCCC2)c(=O)c2c1c1ccccc1n2C)c1cccc(C(F)(F)F)c1	21	0.45
53	COC(=O)C(C)NC(=O)c1ccc(C)cc1 (stereo not drawn)	-0.87	-1.1
54	O=C(CSc1ccc2ccccc2c1)NCCN1C(=O)CSC1=O	nt	0.3
55	N=C1/C(=C/c2ccc(OCc3ccccc3)cc2)C(=O)N=C2SC=C(c3ccccc3)N12	-0.055	nt
56	COc1ccc(C(=O)CSc2nc3c([nH]2)c(=O)[nH]c(=O)n3C)cc1	nt	1.1
57	Cc1cc(Cl)ccc1Oc1cc(C(F)(F)F)cnc1C#N	0.085	-0.4
58	CCn1c(=S)ccc2cc(OC)ccc21	3	-0.85
59	COc1cc(C2Nc3ccc4ccccc4c3C3=C2C(=O)CCC3)ccc1OCc1ccccc1 (stereo not drawn)	96	nt
60	CN(Cc1cccs1)C(=S)S	i	-0.55

(more compounds)
no.	Molecule	CapD inh	AID504770
61	Cc1ncc([N+](=O)[O-])n1CCNS(=O)(=O)c1ccc(Cl)cc1	-0.81	nt
62	O=C(O)CN1C(=O)/C(=C\c2ccc(OCc3ccc(Cl)cc3Cl)cc2)SC1=S	-0.76	nt
63	CCN(CC)c1ncc(Br)cn1	0.12	0.95
64	CN1CCN(C/C=C/c2ccccc2)CC1	-0.17	0.25
65	Cc1nc(C#N)c(N(C)C)o1	-0.49	0.95
66	COc1cc(C(=O)N/N=C/c2ccc3c(c2)OCO3)cc(OC)c1OC	0.83	nt
67	COc1ccc(C2C=C(c3ccc(Cl)cc3)Nc3nc4ccccc4n32)cc1OC (stereo not drawn)	-0.81	nt
68	COc1ccc2c(c1)C(=O)N(c1ccc(Cl)cc1)C(=O)/C2=C/N1CC(C)OC(C)C1 (stereo not drawn)	nt	0.15
69	Cc1ccc(S(=O)(=O)N2CCN(c3nc(NC4CCCC4)c4ccccc4n3)CC2)cc1	48	1
70	CCS(=O)(=O)N1CCN=C1SCc1cccc(F)c1	-0.64	-1.6
71	O=C(OCc1ccc(Oc2ccccc2)c([N+](=O)[O-])c1)c1ccc(Cl)cc1	-0.74	nt
72	CCCCCCCCCOc1ccc(C(=O)OC2CCC3(C)C(=CCC4C3CCC3(C)C(C(C)CCCC(C)C)CCC43)C2)cc1 (stereo not drawn)	-0.81	nt
73	CCN(CC)C(=O)c1nn(-c2ccc(OC)cc2)c(=O)c2c1c1ccccc1n2C	-0.62	-2.8
74	Cc1cc(C)nc(SCc2csc(-c3ccccc3)n2)n1	-0.095	-0.05
75	CCCOc1ccc(-c2cc(C(=O)NCCCN3CCOCC3)c3ccccc3n2)cc1	62	nt
76	CCC(CO)NC(=O)c1cn(-c2ccccc2)nc1-c1cccs1 (stereo not drawn)	1.1	0
77	O=C(CSc1nc2cc3c(cc2c(=O)n1Cc1ccc2c(c1)OCO2)OCO3)NCCc1ccccc1	0.085	0.2
78	COc1ccc(C2c3c(C)nn(C4=NCCCN4)c3NC(=O)C2C#N)cc1 (stereo not drawn)	-0.2	nt
79	CC(=O)NCCc1c[nH]c2ccc(O)cc12	1.3	nt
80	O=C(CSc1ncnc2sc3c(c12)CCCC3)N1CCCC1	nt	0.1
81	NC(/N=C/c1ccccc1O)=N\S(=O)(=O)c1ccc(N=Cc2ccccc2O)cc1	-0.15	-0.15
82	CCN(CC)CC#CCOC(=O)C(O)(c1ccccc1)C1CCCCC1 (stereo not drawn)	118	nt
83	N#CCC(CNc1ncc(C(F)(F)F)cc1Cl)OC(=O)c1ccco1 (stereo not drawn)	0.55	nt
84	Cc1sc2ncn3cnnc3c2c1-c1ccccc1	nt	0
85	O=C1CC(NNc2nc3ccccc3s2)C(=O)N1c1ccccc1 (stereo not drawn)	0.03	-0.15
86	COCn1nc(-c2ccccc2Cl)oc1=S	0.005	-0.15
87	COc1ccc(C(=O)CSc2nc3nc(C)cc(C)c3c(=O)[nH]2)cc1OC	0.33	-0.4
88	COc1cc(/C=c2\sc3nc4ccccc4n3c2=O)c(Br)cc1OC(C)=O	-0.14	nt
89	C=CCSc1nn2c(=O)c3ccccc3nc2s1	0.41	1.6
90	C=CC1CN2CCC1CC2C(=O)c1ccnc2ccc(OC)cc12 (stereo not drawn)	52	nt
91	COc1ccc(Cn2c(CCC(=O)Nc3ccc(CC#N)cc3)nc3cccnc32)cc1	-0.2	0.1
92	CN1CCN(S(=O)(=O)c2ccc(SCc3ccc(F)cc3)nc2)CC1	nt	-0.2
93	Cc1ccc(S(=O)(=O)c2cn(CC(=O)NC3CCCC3)c3nc(C)ccc3c2=O)cc1	0.18	0.3
94	Cc1ccc(C(=O)OCC(=O)c2cc(C)n(Cc3ccco3)c2C)cc1	nt	0.35
95	O=C1/C(=C/c2ccc(N3CCOCC3)cc2)CCC1C1CCCC1 (stereo not drawn)	2	1.3
96	CSc1nnc2nc3c(nn12)c1ccccc1n3C	-1.4	0.15
97	Cc1ccc(S(=O)(=O)N2CCN(Cn3cnc4ccccc43)CC2)cc1C	nt	-0.7
98	CCCCN=Cc1c(O)n(-c2ccc(Cl)cc2)c(=O)[nH]c1=O	-0.51	3
99	CCC(Sc1nc2ccncc2[nH]1)C(=O)NCCc1ccccc1 (stereo not drawn)	0.11	1.1
100	O=C(NCc1ccco1)c1cc(-c2ccccc2)on1	nt	0.8
101	COc1ccc(CN2C(=O)CC(Cc3ccccc3)C2=O)cc1OC (stereo not drawn)	0.2	-0.85
102	O=C(Nc1c(-c2ccccc2)nc2ncccn12)c1ccc(Cl)cc1	2.8	0.1
103	O=c1oc2cc(O)ccc2cc1-c1nc2ccccc2s1	0.35	-0.05
104	COc1ccc(C(=O)Nc2ccccc2)cc1S(=O)(=O)N1CCC(C)CC1	-0.45	-0.6
105	COc1ccc(C2=NN3C(C2)c2ccccc2OC3c2ccc(OC)c(OC)c2)cc1OC (stereo not drawn)	0.57	nt
106	CC(C(=O)O)n1cc(Cl)cn1 (stereo not drawn)	nt	-0.15
107	O=S(=O)(c1ccc(N2CCCC2)nc1)N1CCCC1	nt	-0.05
108	Cc1onc(-c2ccccc2)c1CNS(=O)(=O)c1ccc2c(c1)CCO2	-0.61	-0.45
109	Cc1nc2ccccc2c(=O)n1-c1cccc(C(F)(F)F)c1	0.94	0.65
110	Cc1nc2c(o1)N(c1ccccc1)C(N)=C(C#N)C2c1ccc(OC(C)C)cc1 (stereo not drawn)	-0.02	1.4
111	COc1ccc(-c2csc(C(=O)N3CC(C)OC(C)C3)c2)cc1 (stereo not drawn)	0.085	nt
112	COc1cccc(NCc2nnc(SCC(=O)N3CCc4ccccc43)n2C2CCCCC2)c1	nt	-0.45
113	O=C(Nc1ccc2c(c1)OCO2)c1ccccc1NC(=O)C1CC(=O)N(C2CCCC2)C1 (stereo not drawn)	nt	-0.85
114	CCOC(=O)C1=C(C)N=c2s/c(=C\c3ccc(OC(C)=O)cc3OC(C)=O)c(=O)n2C1c1ccc(OC)cc1 (stereo not drawn)	-0.035	nt
115	COC(=O)C1=C(C)OC(N)=C(C#N)C1c1cc(C)cc(Cn2ccc(C(F)(F)F)n2)c1C (stereo not drawn)	0.05	0.15

Not a retest: entries from further up.
no.	Molecule	CapD inh	AID504770
91	COc1ccc(Cn2c(CCC(=O)Nc3ccc(CC#N)cc3)nc3cccnc32)cc1	-0.2	0.1
92	CN1CCN(S(=O)(=O)c2ccc(SCc3ccc(F)cc3)nc2)CC1	nt	-0.2
93	Cc1ccc(S(=O)(=O)c2cn(CC(=O)NC3CCCC3)c3nc(C)ccc3c2=O)cc1	0.18	0.3
94	Cc1ccc(C(=O)OCC(=O)c2cc(C)n(Cc3ccco3)c2C)cc1	nt	0.35
95	O=C1/C(=C/c2ccc(N3CCOCC3)cc2)CCC1C1CCCC1 (stereo not drawn)	2	1.3

Two of the compounds above, screen by screen.
(107) O=S(=O)(c1ccc(N2CCCC2)nc1)N1CCCC1
(106) CC(C(=O)O)n1cc(Cl)cn1 (stereo not drawn)

screen / no.	107	106
CapD inh	nt	nt
AID504770	-0.05	-0.15

Molecules above that contain a tert-butyl group:
no.	Molecule	CapD inh	AID504770
26	COc1cc(C=C2C(=O)NC(=O)NC2=O)ccc1OCCOc1ccc(C(C)(C)C)cc1	-0.66	nt
34	CC(C)(C)C1C/C(=C/c2ccco2)C(=O)/C(=C/c2ccco2)C1 (stereo not drawn)	-0.71	-0.55

Assay outcomes: PubChem, ICCB-Longwood Screening Facility, Harvard Medical School
